# RVFV N-RNA inh – blocks Rift Valley Fever Virus nucleoprotein binding to RNA. RVFV N-RNA binding, fluorescence polarization; active compounds read low. % bound, % (test concentration not listed). 20,000 compounds, 0.1% hits. AID 651828;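 active means between 0 and 58% in either replicate with normal brightness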;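 further: 100 nL library stock added to about 12 µL; 100% = protein and probe without compound and 0% = probe alone; numbers are from one replicate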
# Target sequence (P21700 whole entry, looked up): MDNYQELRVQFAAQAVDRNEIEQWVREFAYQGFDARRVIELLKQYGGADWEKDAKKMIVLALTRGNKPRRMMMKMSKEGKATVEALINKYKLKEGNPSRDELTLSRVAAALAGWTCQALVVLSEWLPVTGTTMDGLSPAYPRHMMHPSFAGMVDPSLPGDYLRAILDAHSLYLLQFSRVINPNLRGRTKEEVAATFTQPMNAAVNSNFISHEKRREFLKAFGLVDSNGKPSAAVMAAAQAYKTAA
# * hit, by the source's call; & = joins results of further samples. Some of the compounds tested; the hit share may differ from the screen's.
SMILES | RVFV N-RNA inh
Cn1c(=O)c(/C(N)=N/OC(=O)c2ccccc2)cn(-c2ccccc2)c1=O | 93
CC(=O)Nc1ccccc1NC(=O)c1ccccc1 | 94
CC1(C)CC(=O)C2=C(C1)Nc1ccccc1S2 | 101
O=C(O)c1ccc(NC(=O)c2ccc3c(c2)C(=O)N(Cc2ccco2)C3=O)cc1 | 99
COc1ccc(CCC(C)N2CCN(c3cc(C)ccc3C)CC2)cc1 (stereo not given) | 97
COc1ccc(OC)c(NC(=O)CSc2nc3c(c(=O)n2Cc2ccccc2)SC(C)C3)c1 (stereo not given) | 99
O=C1c2ccccc2-c2cccc(C(=O)N3CCCCC3)c21 | 88
NC(=O)N/N=C/c1cccn1-c1ccc(C(F)(F)F)cc1 | 94
CC(=O)Nc1cccc(-n2nnc(SCC(=O)c3ccc4c(c3)OCCCO4)n2)c1 | 96
COc1ccc(S(=O)(=O)N(CC(=O)Nc2ccc3c(c2)OCCO3)c2ccccc2)cc1OC | 93
Cn1c(C(=O)N/N=C/c2cccs2)cnc1SCc1ccc(Cl)cc1 | 95
Cc1noc(C)c1NC(=O)NCc1csc(-c2cccs2)n1 | 93
CC(=O)Nc1cccc(OCCCNS(=O)(=O)c2ccc(F)cc2)c1 | 93
CCCCn1c(C)c(C)c(S(=O)(=O)c2ccccc2)c1N | 88
COc1ccc(/C(O)=C2\C(=O)C(=O)N(CCCN(C)C)C2c2cc(OC)c(OC)c(OC)c2)cc1Cl (stereo not given) | 94
Cn1cnc2c(oc3ccccc32)c1=O | 97
Cc1oc2cc(OC(C)C)ccc2c(=O)c1Oc1ccccc1 | 92
C=CCNC(=O)C1(c2cccs2)CCOCC1 | 98
CC(C)(C)c1cc(C(=O)N2CCc3ccccc3C2)ccn1 | 102
CC1(C)Cc2c(sc3nc(Nc4ccccc4)[nH]c(=O)c23)CO1 | 103
O=C(N/N=C/c1ccco1)c1ccc(Br)o1 | 92
c1cc2c(cc1NC1CC3CCC1C3)OCO2 (stereo not given) | 101
CN1CCN(C2=Nc3cc(Cl)ccc3Nc3ccccc32)CC1 | 98&95&95
O=C(Nc1cccc(C(=O)N2CCN(C(=O)c3ccco3)CC2)c1)c1ccccc1 | 93
Brc1cc2c(cc1COc1ccc(-c3nn[nH]n3)cc1)OCO2 | 89
O=C(CC1S/C(=N/N=C/c2ccco2)NC1=O)Nc1ccc(Cl)cc1 (stereo not given) | 73*
COc1ccc(CCNC(=S)Nc2ccc(N3CCOCC3)c3nonc23)cc1OC | 95
O=c1[nH]nc(-c2cccs2)cc1Cc1ccsc1 | 61
CON(C)C(=O)c1sc2ccccc2c1Cl | 95
O=c1c(-c2ccc(Br)cc2)coc2cc(O)cc(O)c12 | 93

# Single values from above:
# `CCCCn1c(C)c(C)c(S(=O)(=O)c2ccccc2)c1N` @ RVFV N-RNA inh: 88
# `O=C(CC1S/C(=N/N=C/c2ccco2)NC1=O)Nc1ccc(Cl)cc1` (stereo not given) @ RVFV N-RNA inh: 73*

# Remaining list, next part
SMILES | RVFV N-RNA inh
Cc1cnn(C(=S)NCc2ccc(Cl)cc2)c1 | 109
Cc1ccc(-c2nc3scc(CCNC(=O)Cc4ccccc4)n3n2)cc1 | 97
CCC(CC)C(=O)Nc1cccc(C(=O)N2CCCC2)c1 | 97
C=CCc1cc(C=C2C(=O)NC(=O)NC2=O)cc(OC)c1OC | 101
Cc1csc2nc(O)c(C(=O)NCC(C)O)c(=O)n12 (stereo not given) | 96
Cc1ccc(N/N=C(\C#N)C(=O)c2cc(C)nn2C(C)(C)C)cc1 | 98
Cc1nnc2n1NC(c1ccc(Cl)cc1)=CS2 | 92
CCOC(=O)c1cc(-c2ccc(Br)s2)n[nH]c1=O | 99
NC(CO)C(=O)NNCc1ccc(O)c(O)c1O (stereo not given) | 85&81
CCOC(=O)/C(C#N)=C/Nc1nnc(SCC#N)s1 | 96
COc1cc(C(=O)N2CCCCC2)cc(OC)c1OC | 96
O=C(Nc1ccc(C(F)(F)F)cc1)Nc1ccc(N2CCN(c3ncccc3C(F)(F)F)CC2)nc1 | 97
Cc1ccc(NC(=O)Nc2ccc(C(F)(F)F)cc2)cc1NS(C)(=O)=O | 105
Cc1cc(OCC(=O)NCc2ccc3c(c2)OCO3)ccc1Cl | 103
CCOCC(=O)Nc1cccc(Br)c1 | 97
CC(C)c1ccc(NC(=O)CSc2n[nH]c(=O)n2Cc2ccco2)cc1 | 100
CN1CCN(CC(=O)CCN2C(=O)/C(=C/c3ccccc3Cl)SC2=S)CC1 | 95
COCCNC(=O)c1cc2ncc(Br)cn2n1 | 100
Cc1nc(-c2ccccc2)sc1C(=O)/C=C/N(C)C | 100
c1ccc(Cc2nc3ccccc3o2)cc1 | 93
CCOC(=O)C1=C(CC)OC(N)=C(C#N)C1c1ccccc1 (stereo not given) | 88
CCOC(=O)Nc1ccc2c(C)cc(=O)oc2c1 | 92
Cc1cc(C(=O)Nc2ccc3c(c2)OCCO3)oc1C | 101
O=C(c1cnc2sccn2c1=O)N1CCCc2ccccc21 | 93
O=C1ON=C2C3CC4CC12CC1(C3)C(=O)ON=C41 | 92
Cc1ccccc1OC(C)C(=O)N1CCCc2ccccc21 (stereo not given) | 98
NC(=O)/C=C/C(=O)Nc1ccccc1Cl | 88
COC(=O)c1ccc(/C=N/NC(=O)CO)cc1 | 90
CC1C2CC(C/C2=N\NC(N)=S)C1(C)C (stereo not given) | 100
Cc1oc(C(=O)O)cc1COc1cccc2ccccc12 | 107

# Quoted at random: two compounds from above.
SMILES | RVFV N-RNA inh
CCOC(=O)C1=C(CC)OC(N)=C(C#N)C1c1ccccc1 (stereo not given) | 88
c1ccc(Cc2nc3ccccc3o2)cc1 | 93

# The list continues:
SMILES | RVFV N-RNA inh
CC(=O)Nc1cccc(F)c1/C(N)=N/OC(C)=O | 98
CCCCn1c(/N=C/c2nc3ccccc3n2C)nc2ccccc21 | 109
S=C1NC2(CCCCCC2)NN1c1ccccc1 | 88
CC(=O)Nc1ccccc1C(=O)NN | 99
CN(C)c1ccc(C=Nc2ccc(C(N)=O)cc2)cc1 | 86
Cc1cnc(NC(=O)CCN2C(=O)c3ccccc3C2=O)s1 | 101
O=c1ccnc(SCCc2ccccc2)[nH]1 | 101
Nc1ncnc2c1ncn2[C@@H]1O[C@H](CO)[C@@H](O)[C@@H]1O | 94&96
CCN1CCN(CC(=O)N/N=C/c2ccccc2)CC1 | 92
Oc1ccc(Cl)cc1/C=N/c1nccs1 | 87
CC(NC(=O)c1cccs1)c1ccccc1 (stereo not given) | 97
CCCC(=O)ON1C(=O)c2cccc3cccc(c23)C1=O | 98
CNC(=S)NCCN1CCCCC1 | 92
C=CC1(C)CC(=O)C2(O)C(C)(O1)C(OC(C)=O)C(O)C1C(C)(C)CCC(O)C12C (stereo not given) | 101
NC(=O)N1c2ccccc2CC(=O)c2ccccc21 | 90&77
CC1CSc2nc3sc4c(c3c(=O)n21)CCCC4 (stereo not given) | 91
COc1ccc2nc(-c3nc4ccccc4s3)sc2c1 | 95
CC(C)S(=O)(=O)c1nc2ccccc2n1CC(=O)N1CCCc2ccccc21 | 85
C[C@H]1[C@H](NC(=O)/C(=N\OC(C)(C)C(=O)O)c2csc(N)n2)C(=O)N1S(=O)(=O)O | 98
COC(=O)c1ccccc1OC(=O)c1ccncc1 | 94
O=S(=O)(O)CCCS(=O)(=O)O | 106
CS/C(=N\S(=O)(=O)c1ccccc1)NNc1ccccc1 | 90
CCCS(=O)(=O)N1CCN(c2ccc(NCC3CCCO3)nn2)CC1 (stereo not given) | 92
CN(C)CCN(C)Cc1cc(C(C)(C)C)c(O)c(C(C)(C)C)c1 | 91
CCc1c(C(=O)OC)nn(-c2ccc(OC)cc2)c(=O)c1C#N | 101
O=C1/C(=C/c2cccs2)SC(=S)N1/N=C/c1cccs1 | 106
Cc1ccc(S(=O)(=O)NCCN=Cc2ccc(N(C)C)cc2)cc1 | 100
COc1ccc(OC)c(C(O)CNC(=O)CN)c1 (stereo not given) | 99
CN(CCc1ccccn1)C(=O)Nc1cc(Cl)cc(Cl)c1 | 91
Nc1n[nH]c2cc(=O)[nH]c(O)c12 | 83
CCc1ccc(C(=O)CSc2nnc3[nH]c(=O)c(C(C)(C)C)nn23)cc1 | 104
O=C1C2CC3CC1CC(O)(C3)C2 | 99
COc1cc2c(cc1OC)C(C)N(C(=O)c1ccc(N)cc1)CC2 (stereo not given) | 94
CC(C)(C)C1(C)OC(CO)C(CO)O1 (stereo not given) | 98
O/N=C(\c1ccccc1)c1nccc2ccccc12 | 99
CCOC(=O)c1ccc(N=Cc2nc3ccccc3n2C)cc1 | 91
Cn1c(CSCc2nc(-c3ccc(Cl)cc3)cs2)n[nH]c1=S | 92
c1ccc2c(c1)SCc1nnc(-c3ccncc3)n1-2 | 90
CCOc1ccc(C(=O)N2C(C)CCCC2C)cc1OCC (stereo not given) | 105
CCCCN1COc2c(c3c(C(=O)OCC)c(C)oc3c3ccccc23)C1 | 100
C=CCn1c(CC(=O)Nc2ccccc2Cl)nnc1SCC(=O)Nc1nccs1 | 87
CCNC(=O)[C@H]1O[C@@H](n2cnc3c(N)ncnc32)C(O)[C@H]1O (stereo not given in full) | 103
COC(=O)C(NC(=O)Nc1ccc(C(C)(C)C)cc1)C(C)C (stereo not given) | 86
NC(=O)Cc1cc(=O)oc2cc(O)ccc12 | 92
CCN(CC)CCN(C)C1C2CC3CC(C2)CC1C3 (stereo not given) | 89
O=C1CC(NC(=O)N2CCCc3ccccc32)CN1c1ccccc1 (stereo not given) | 96
CSCCNC(C)=O | 102
CC(=O)OCCSc1nc(N(C)C)nc(N(C)C)n1 | 99
CCOC(=O)N1CCN(c2c(-c3ccccc3)c3cc(Cl)ccc3[nH]c2=O)CC1 | 97
Cc1nnc(SCC2=C(C(=O)O)N3C(=O)[C@@H](NC(=O)Cn4cnnn4)[C@H]3SC2)s1 | 89
COc1ccc(OC(=O)C=C(C)C)cc1 | 103
O=C(O/N=C/c1ccc(F)c(Cl)c1)C1CC1 | 96
COc1cccc(NC(=O)CC2CCCCC2)c1 | 93
CN(C)c1ccc(C(=S)N2CCN(c3cccc(Cl)c3)CC2)cc1 | 99
Cc1ccc(Cl)cc1NC(=O)CSc1nc2c(oc3ccccc32)c(=O)n1C1CCCC1 | 97
O=C1c2ccccc2NC2(CCCCC2)N1N=C1CCCCC1 | 96
OCCSc1n[nH]c(-c2ccccc2)n1 | 101
CCc1ccc(S(=O)(=O)N2CCCC2C(=O)OC)cc1 (stereo not given) | 95
Cc1cc(NC(=O)COc2coc(CN3CCc4ccccc4C3)cc2=O)no1 | 108
Cc1ccc(C2NCCS2)cc1 (stereo not given) | 92

# Reformatted: entries from further up
c1ccc2c(c1)SCc1nnc(-c3ccncc3)n1-2
  RVFV N-RNA inh: 90

CCOc1ccc(C(=O)N2C(C)CCCC2C)cc1OCC (stereo not given)
  RVFV N-RNA inh: 105

CCCCN1COc2c(c3c(C(=O)OCC)c(C)oc3c3ccccc23)C1
  RVFV N-RNA inh: 100

C=CCn1c(CC(=O)Nc2ccccc2Cl)nnc1SCC(=O)Nc1nccs1
  RVFV N-RNA inh: 87

# Continued:
SMILES | RVFV N-RNA inh
N#CCCN(/N=C/c1ccc(-c2ccc(Br)cc2)o1)C1=NS(=O)(=O)c2ccccc21 | 94
CC(=O)Nc1nnc(S(N)(=O)=O)s1 | 93&97
CCCc1cc(=O)[nH]c(=S)[nH]1 | 93
COc1cccc(-c2noc(-c3cc(OC)cc(OC)c3)n2)c1 | 90
COC(=O)Cc1c(C(=O)OC)nnn1-c1ccc(Br)cc1 | 98
CC(C)Oc1cccnc1N(C)C1CCN(Cc2ccccc2)CC1 | 93
COC(=O)Cc1c(C)ncnc1OCC(=O)Nc1ccc2c(c1)OCCO2 | 93
O=C(CSCc1ccccc1)NC1CCSC1=O (stereo not given) | 91
CCOc1ccc(-c2nc(NC(C)=O)c3c(=O)oc4c(OC)cccc4c3n2)cc1 | 99
CC(=O)NC(Cc1ccccc1)C(=O)OCN1C(=O)c2ccccc2C1=O (stereo not given) | 99
O=S(=O)(NCCSc1ccccc1)c1ccc(Cl)cc1 | 102
Cc1ccccc1C=C1C(=O)N(C)C(=S)N(C)C1=O | 82
O=C(O)/C=C\C(=O)Nc1ccc2nc[nH]c2c1 | 88
CCC(=O)NC(=S)Nc1ccccc1 | 91
FC(F)(F)c1cccc(CN2CCSCC2)c1 | 90
Brc1cnn(Cc2ccccc2)c1 | 102
COc1ccc(C(CC#N)c2ccccc2)cc1 (stereo not given) | 96
c1ccc2[nH]c(C3CCN(CCN4CCOCC4)CC3)nc2c1 | 95
O=C1CSC(=Nc2ccc(O)cc2)N1 | 99
COc1ccc(CCNC(=O)CSc2nc(C)nc3c2c(=O)n(C)c(=O)n3C)cc1OC | 101
O=C(NCCC1=CCCCC1)c1ccccc1 | 102
Cc1cc(C)cc(NC(=O)N(CCC(=O)O)Cc2ccccc2)c1 | 94
CN(C(=O)c1ccco1)c1ccccc1C(=O)NCc1ccccc1 | 97
CCN(CC)C(=O)n1nnc2ccccc21 | 92
O=C1Cc2c([nH]c3ccc(Br)cc23)-c2ccccc2N1 | 101&106
COC(=O)C(C)N1C(=O)S/C(=C/c2cc(C)n(-c3ccc4c(c3)OCO4)c2C)C1=O (stereo not given) | 98
Nn1c(SCC(=O)NCc2ccc3c(c2)OCO3)nncc1=O | 96
O=C(O)c1cccnc1SC1CC(=O)N(C2CCCC2)C1=O (stereo not given) | 93
CC(C)c1ccc(NC(=S)NN2CCOCC2)cc1 | 87
CCC(C(=O)N1CCN(CC)CC1)c1ccccc1 (stereo not given) | 98
COc1ccc(N2C(=O)CC(N(O)c3ccccc3)C2=O)cc1 (stereo not given) | 94
Cc1nc(C(=O)N/N=C/c2[nH]ncc2Cl)cs1 | 99
CC(=O)NC(=S)N1CCCc2ccccc21 | 94
N#Cc1ccccc1OCCCn1cnc2ccccc2c1=O | 99
COCCCNc1oc(-c2ccccc2)nc1S(=O)(=O)c1ccccc1 | 96
CCOC(=O)c1sc(NC(=O)C2CC2)cc1C | 97
NNC(=O)CNC(=O)c1ccc(S(=O)(=O)N2CCOCC2)cc1 | 104
COC(=O)c1ccsc1NC(=O)CN1CCN(S(=O)(=O)c2ccc(Cl)cc2)CC1 | 90

# Compound activity (PubChem BioAssay)
